Screens: PubChem, ICCB-Longwood Screening Facility, Harvard Medical School
Sa growth 42C = S. aureus growth inhibition at 42 and 30 °C, primary screen, LtaS inhibitor project, RN4220, two temperatures; 0.53% of 170,000 active; OD600, 20 h, 42 °C; hits give low values; relative growth, % (no concentration beside the values);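 active = growth at 42 °C up to 50% and 20 or more points under that at 30 °C, or under 10% at both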;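 note: 300 nL library stock went into each well; scaled to the means of positive and negative controls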
GIV Gai3 FP = inhibitors of GIV peptide binding to Galpha-i3, primary screen, biochemical, fluorescence polarization, FITC-GIV GBA peptide, rat Galphai3 | Guanine nucleotide-binding protein G(i) subunit alpha-3 (Rattus norvegicus), P08753 | 90 min; hits give low values; scaled: aluminum fluoride 0%, vehicle 100% | percent of control (FP), % (concentration not given with the values) | 0.42% of 210,000 active;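 active = replicate mean at 85% of control or lower, very high polarization wells dropped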;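 note: wells of about 15 µL received 100 nL stock; the first replicate is given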
Target sequence (P08753 whole entry, looked up): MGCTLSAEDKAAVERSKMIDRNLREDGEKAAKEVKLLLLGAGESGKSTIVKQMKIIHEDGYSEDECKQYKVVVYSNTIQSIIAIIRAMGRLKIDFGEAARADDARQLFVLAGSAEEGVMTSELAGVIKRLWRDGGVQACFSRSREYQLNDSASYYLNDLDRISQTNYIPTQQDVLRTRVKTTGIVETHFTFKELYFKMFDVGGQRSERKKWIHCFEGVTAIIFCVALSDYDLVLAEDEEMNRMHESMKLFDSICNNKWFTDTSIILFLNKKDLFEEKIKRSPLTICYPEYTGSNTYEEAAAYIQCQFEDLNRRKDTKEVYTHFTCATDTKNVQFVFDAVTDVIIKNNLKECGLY
HCMV NEC inh = inhibitors of HCMV UL50-UL53 interaction, biochemical, HTRF. HCMV UL50-UL53 nuclear egress complex (human cytomegalovirus). normalized percent inhibition. inhibition, % (no concentration beside the values). 0.15% of 190,000 active. AID 1918969, 2023;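 active = both replicates at 50% or more, plus weaker picks with an unusually low signal ratio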;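 note: stock transfer was 100 nL into about 20 µL; 0% = negative control wells and 100% = wells with untagged competitor protein; inactives centre near -12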
Sa growth 42C second temp = recorded beside Sa growth 42C, whose call it bears; relative growth, %; measured here: growth at 30 °C;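 optical density after 20 h as mean of two plates; 100% = untreated growth and lower means inhibition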
* = called active by the depositor; x = no result given; & = joins results of further samples. Not a hit list (roughly 0.83% active in at least one column).

SMILES	Sa growth 42C	Sa growth 42C second temp	GIV Gai3 FP	HCMV NEC inh
CSc1ccc(-c2ccc(C(=O)O)c(Cl)n2)cc1	96	93	101	-24
Cc1nc(-c2cc(S(=O)(=O)NCC(=O)N3CCN(c4ccccc4)CC3)c(C)s2)no1	x	x	98	-12
Cc1cccc(OCC(=O)Nc2ccc3nc(SCc4ccccc4)sc3c2)c1	96	86	102	9
FC(F)(F)C(F)(F)C(F)(F)c1nnc2ccc(N3CCOCC3)nn12	103	80	100	-25
Cc1nnc(NNC(=O)c2ccc(C#N)cc2)[nH]c1=O	98	88	x	-25
Cc1cc(-c2nc(-c3cccc(Cl)c3)no2)n[nH]1	x	x	100	-22
O=C1c2ccncc2C(=O)N1Cc1ccccc1	93	96	110	-39
O=C(CSc1nc2c(c(=O)[nH]1)CCC2)N1CCCCCC1	97	92	99	x
Nn1c(Cc2cccc3ccccc23)nnc1SCC(=O)N1CCCC1=O	97	106	x	-18
C=CCSC1=C(C#N)C(c2ccccc2OC)C(C#N)C(=O)N1 (stereo not given)	89	67	98	-34
C[S+](C)c1ccccc1	95	84	106	-14
CC1Oc2cc(S(=O)(=O)N3CCN(C(=O)NCCc4ccccc4)CC3)c(Cl)cc2NC1=O (stereo not given)	x	x	109	-7
O=C(NCCCc1ccccc1)C1CCN(c2nc3ccccc3[nH]2)CC1	x	x	100	11
Cc1c(Cl)cccc1NC(=O)C1CCCN(C(=O)c2cnn(-c3ccccc3)c2-n2cccc2)C1 (stereo not given)	94	84	104	-31
Cc1ccc(-c2nc3sc(N(C)CC(=O)NCCc4c[nH]c5ccccc45)nn3c2NC(C)(C)C)cc1	x	x	99	-2
COc1cccc(NC(=O)c2oc3ccccc3c2NC(=O)c2cccs2)c1	89	67	105	-5
CC(C(=O)NCCCN1CCN(C)CC1)n1nc(-c2ccccc2)c2cc(Cl)ccc21 (stereo not given)	104	95	110	8
O=C(COc1ncnc2sccc12)c1ccc2c(c1)OCCO2	104	86	x	-34
COc1ccc(-c2n[nH]c(C)c2-c2ccccc2)c(O)c1	87	93	106	-34
Cc1ccc(C2=NN(c3nc(C)cs3)C(c3ccccc3F)C2)cc1 (stereo not given)	x	x	102	-46
COc1ccc(-c2cc(N)n(S(=O)(=O)c3ccc(Br)cc3)n2)cc1OC	x	x	99	-26
CC(NCc1cn(Cc2ccccc2)nc1-c1cccnc1)c1ccc(-n2ccnc2)cc1 (stereo not given)	77	82	x	-12
Cc1ccc(Cl)cc1NC(=O)N1CCC(CN2CCCCCC2)CC1	127	94	107	x
CNc1c(NS(=O)(=O)c2ccc(Cl)cc2)c(=O)oc2ccccc12	126	97	108	x
Cc1cc(CO)cc(C)c1Br	116	99	101	-7

Following part.
SMILES	Sa growth 42C	Sa growth 42C second temp	GIV Gai3 FP	HCMV NEC inh
CC(=O)N1N=C(c2ccccc2)OC1(C)CC(=O)Nc1ccccc1 (stereo not given)	113	87	x	-3
O=C(c1cccc(Br)c1)N(C(=O)c1cccc(Br)c1)c1ncccn1	107	92	x	-31
CCOc1ccc(CCNC(=O)C2CCN(S(=O)(=O)c3cccc4nonc34)CC2)cc1OCC	96	87	103	-31
CCn1c(=O)c2cc(C(=O)Nc3cc(C)c(Cl)cc3OC)sc2c2ccccc21	114	76	99	-34
COC(=O)c1ccccc1NC(=O)Cc1coc2c(C)c(C)ccc12	91	91	101	-6
COc1ccc(NC(=O)Cn2c(=O)n(-c3ccc(Cl)cc3)c(=O)c3c(C)c(C(=O)N(C)C)sc32)cc1Cl	100	84	100	x
COc1ccccc1-c1nnc(NC(=O)c2ccccc2S(C)(=O)=O)o1	79	71	99	-39
CCCCCCc1nc(SCN2C(=O)c3ccccc3C2=O)c2c(=O)n(C)c(=O)n(CCC)c2n1	83	94	x	-18
O=c1c2c3nc4ccccc4nc3n(-c3cccc(Br)c3)c2ncn1CC1CCCO1 (stereo not given)	96	107	101	12
CCOC(=O)c1cnn2c(C(F)(F)F)cc(C)nc12	112	90	102	x
Cc1cc2oc(=O)c(CC(=O)NCCc3ccccc3)c(C)c2c2occ(C(C)(C)C)c12	103	93	101	-22
N#Cc1c(NC(=O)COC(=O)C2CC3C=CC2C3)oc(-c2ccccc2)c1-c1ccccc1 (stereo not given)	82	76	x	-24
Cn1c(=O)cc(SCC(=O)NC2CCCCC2)c2ccccc21	81	71	100	x
CCOc1cc(C=C2C(=O)NC(=S)NC2=O)cc(Br)c1OCCOc1ccccc1C	x	x	90	-10
CCOC(=O)Cc1ccc(NC(=O)Nc2nnc(N3CCCCC3C)s2)cc1 (stereo not given)	112	92	100	-9
Cc1ccc(C2CCCN2S(=O)(=O)c2cc(C)ccc2C)cc1 (stereo not given)	x	x	109	10
CC(=O)c1cc(-c2ccc(F)cc2)n(CCC(=O)Nc2nc3c(C)cccc3s2)c1C	107	85	98	x
CN(CCCNC(=O)c1cc(=O)n(C)c2c1c(=O)n(C)c(=O)n2C)C1CCCCC1	x	x	103	-19
COc1cc(OC)cc(C(=O)Oc2c(Sc3ccccc3)c(C)nn2C(C)(C)C)c1	103	93	105	-11
O=C(COCC(=O)N1CCc2ccccc21)N1CCc2ccccc21	111	85	x	-15
Cc1cc(C(=O)NN)c2cc(Br)ccc2n1	115	97	106	-9
Cc1ccc(C(=O)NCC(=O)O)s1	98	96	x	-6
COc1ccc(OC)c(CNS(=O)(=O)c2ccc3c(c2)oc(=O)n3C)c1	105	86	102	-26
CCOc1cc(C2Nc3ccccc3-c3nnc(SCc4ccccc4)nc3O2)ccc1OC (stereo not given)	107	90	109	-27
O=C1C(Cc2ccccc2)N=C(N2CCN(c3ccc(Cl)cc3)CC2)N1c1ccccc1 (stereo not given)	93	67	103	-26

(cont.)
SMILES	Sa growth 42C	Sa growth 42C second temp	GIV Gai3 FP	HCMV NEC inh
CCn1c(SCC(N)=O)nc2ccccc21	113	103	103	-21
Cc1csc(=O)n1CCC(=O)OCC(=O)c1ccc(S(=O)(=O)N2CCCCC2)cc1	92	95	x	-4
Cc1c(C(=O)N2CCC(C#N)CC2)sc2ncnc(N3CCN(c4ccccc4F)CC3)c12	x	x	102	-10
CC1(C)CC2CC(C)(CN2C(=O)COC(=O)c2ccc3c(c2)OCCO3)C1 (stereo not given)	86	87	x	-6
Cc1cc(C)c(S(=O)(=O)NCCc2sc(-c3ccc(F)cc3)nc2C)c(C)c1	x	x	103	-6
Cc1cccc(N2CCN(C(=O)CN3C(=O)COc4ccc(S(=O)(=O)N5CCC(C)CC5)cc43)CC2)c1C	105	94	101	-16
C(=C\c1ccccc1)/C=N/Nc1nc2ccccc2[nH]1	133	82	x	2
Cc1ccc(OCc2ccccc2C(=O)Nc2nccs2)cc1	106	81	x	-6
CSc1sc(C(=O)/C=C/N(C)C)c(-c2cccs2)c1C#N	95	82	106	-117
C=CCOc1ccc(CN(C)CC(O)COc2ccccc2C(C)C)cc1 (stereo not given)	131	67	x	22
Cc1nn(-c2ccccc2)c(OC(=O)C(C)(C)C)c1Sc1ccccc1	94	92	100	-23
O=C(NCSc1nc2ccccc2s1)c1ccco1	89	104	x	4
Cc1ccc2c(c1)c1c(c(=O)n(Cc3ccccc3)c(=O)n1CC(=O)NCc1ccccc1Cl)n2C	98	88	105	-13
CCOc1ccccc1N(CC)C(=O)c1cc2c(=O)n(CC)c3ccccc3c2s1	87	82	107	2
CCC(=O)N1CCCc2ccc(NC(=O)c3c(-c4ccccc4Cl)noc3C)cc21	x	x	107	-28
COc1ccc(CNC(=O)C2CC(=O)N=C(N)S2)cc1 (stereo not given)	86	101	104	x
CCN1C(=O)/C(=C\C=C2/Sc3ccc(Cl)cc3N2C)SC1=S	109	88	184	x
O=C(O)c1n[nH]c2c1CCCC2	108	91	104	-9
CCOc1ccc2[nH]c(=S)[nH]c2c1	72	82	x	-15
CCc1cccc(NC(=O)CSc2nccn2C)c1	99	92	105	-12
O=S(=O)(NN=Cc1cn(-c2ccccc2)nc1-c1ccco1)c1ccc(Cl)cc1	85	82	106	3
COCCNC(=O)C1CCN(c2ccc(Cl)cc2)C1=O (stereo not given)	x	x	103	-5
COc1ccc(NC(=O)C2=CC(c3ccco3)=NS(=O)(=O)N2C)cc1	86	71	109	-62
CN(C)C(=O)C1CC(=O)N(c2ccc(Cl)cc2)C1 (stereo not given)	114	74	102	x
COC(=O)c1ccc(NC(=O)CN(Cc2ccccc2)S(=O)(=O)c2ccc(C)cc2)cc1	90	67	106	-37

Looked up one by one from above (three):
SMILES	Sa growth 42C	Sa growth 42C second temp	GIV Gai3 FP	HCMV NEC inh
COCCNC(=O)C1CCN(c2ccc(Cl)cc2)C1=O (stereo not given)	x	x	103	-5
O=C(O)c1n[nH]c2c1CCCC2	108	91	104	-9
Cc1c(C(=O)N2CCC(C#N)CC2)sc2ncnc(N3CCN(c4ccccc4F)CC3)c12	x	x	102	-10

Record cards (already shown):
Results for COc1ccc(CNC(=O)C2CC(=O)N=C(N)S2)cc1 (stereo not given) : Sa growth 42C: 86; Sa growth 42C second temp: 101; GIV Gai3 FP: 104; HCMV NEC inh: x
Results for COc1ccc(NC(=O)C2=CC(c3ccco3)=NS(=O)(=O)N2C)cc1 : Sa growth 42C: 86; Sa growth 42C second temp: 71; GIV Gai3 FP: 109; HCMV NEC inh: -62

Additional entries
SMILES	Sa growth 42C	Sa growth 42C second temp	GIV Gai3 FP	HCMV NEC inh
CC(=O)OC1CCC([N+](C)(C)C)C(OC(C)=O)C1[N+](C)(C)C (stereo not given)	98	93	x	-13
COc1ccccc1Oc1c(F)c(F)nc(N2CCCCC2)c1F	84	71	139	-18
CC(C)C(C(=O)O)N1C(=O)CSC1=S (stereo not given)	106	88	99	-8
COc1ccc(C(=O)CSc2nc3c([nH]2)c(=O)n(C)c(=O)n3C)cc1	98	80	104	x
c1ccc(CNC2=NCCCCC2)cc1	109	90	x	-22&-23
O=C1/C(=C/c2cccnc2)CC/C1=C\c1cccnc1	119	83	90	x
CCOC(=O)N1CCC(NC(=O)CSCc2cnn(-c3ccccc3)c2-n2cccc2)CC1	103	90	101	3
CCCCNC(=O)Cn1cnc2nc(SCC)ncc2c1=O	x	x	107	2
Cn1ccc2cc(S(=O)(=O)N3CCC(C(=O)N4CCN(c5ccccn5)CC4)CC3)ccc21	x	x	105	-36
CCCCN(C(=S)Nc1cccc(C)c1)c1c(N)n(CCC)c(=O)[nH]c1=O	104	94	x	13
Cn1ccc2cc(S(=O)(=O)N3CCN(C(=O)Nc4ccc(Br)cc4F)CC3)ccc21	x	x	105	-8
COC(=O)c1ccccc1NC(=O)CNCCc1ccc(OC)c(OC)c1	85	85	x	-11
COc1ccc(C)cc1NC(=O)c1ccc2c(c1)nnn2C1CCCC1	84	77	103	x
O=C(On1c(C2CCCCC2)nc2ccccc2c1=O)c1ccccc1F	x	x	97	-6
CCC(CC)C(=O)Nc1cccc(I)c1	105	78	101	-10
Cc1ccc(S(=O)(=O)NC(=O)NC(C)C2CC3CCC2C3)cc1 (stereo not given)	137	96	x	-16
Cc1cc(C2=NNC(=NCC3CCCO3)SC2)c(C)n1-c1c(C)n(C)n(-c2ccccc2)c1=O (stereo not given)	86	86	x	-2
CCc1ccc(C2C(C(=O)OC)=CNC=C2C(=O)OC)cc1	98	91	x	-23
CCC1(CC)Cc2ccccc2C(=O)N1	100	84	100	x
Cc1cc2c(cc1S(=O)(=O)NCCN1CCN(c3ccccc3F)CC1)OCC(=O)N2	96	76	101	x
Cc1ccc(C2CC(=O)N(c3ccc(F)c(C)c3)C(=O)C2)cc1	x	x	102	-29
COc1ccc(CCN(Cc2nc3ccccc3c(=O)[nH]2)C(=O)C(C)C)cc1	112	78	96	16
O=C(CSc1nc2c([nH]c3ccccc32)c(=O)n1-c1ccccc1)Nc1ccccc1F	103	83	97	x
COCCNc1ncnc2c1cnn2-c1cc(Cl)ccc1C	118	87	105	x
COc1ccc(N2C3=[N+](CCCC3)CC2(C)O)cc1 (stereo not given)	101	93	x	-11

Structural class, the entries above containing a COOH group (four)
SMILES	Sa growth 42C	Sa growth 42C second temp	GIV Gai3 FP	HCMV NEC inh
CSc1ccc(-c2ccc(C(=O)O)c(Cl)n2)cc1	96	93	101	-24
Cc1ccc(C(=O)NCC(=O)O)s1	98	96	x	-6
O=C(O)c1n[nH]c2c1CCCC2	108	91	104	-9
CC(C)C(C(=O)O)N1C(=O)CSC1=S (stereo not given)	106	88	99	-8

Additional compounds
SMILES	Sa growth 42C	Sa growth 42C second temp	GIV Gai3 FP	HCMV NEC inh
CCCn1c(=O)n(C)c(=O)c2c(SCc3cccc(S(=O)(=O)N(C)C)c3)nc(C(C)C)nc21	86	91	x	11
CCOc1ccc(OCc2ccc(C(=O)NN)o2)cc1	95	93	103	x
O=C(CN1CCN(S(=O)(=O)Cc2ccccc2)CC1)Nc1ccc2[nH]c(=O)[nH]c2c1	73	93	x	1
Cc1ccc(C)c(Cn2cnc3c(cnn3-c3ccc(F)cc3)c2=O)c1	100	84	104	-27
CCn1c(=O)c(N2CCC(C(=O)NCCc3c[nH]c4ccc(OC)cc34)CC2)nc2ccccc21	x	x	100	-50
CCOC(=O)C1CCN(C(=O)c2cc3n(n2)CC(C)(C(=O)NC2CCCC2)N(C)C3=O)CC1 (stereo not given)	x	x	99	-6
